GLA inh pH 4.5: blocks human alpha-galactosidase A at pH 4.5; P06280; purified enzyme, 4-MU-alpha-Gal fluorescence, pH 4.5; activity change, negative = inhibition, % at 105 µM; 230,000 tested, under 10 active; AID 1467; inconclusive = small, poorly fitted or top-dose-only inhibition, or a rising curve; inactive = flat fitted curve, though single readings scatter; no compound was filed as active;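 note: 0% = full activity with enzyme and -100% = basal without enzyme; dose as in the result columns while the protocol names 77 µM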
Target sequence (P06280 whole entry, looked up): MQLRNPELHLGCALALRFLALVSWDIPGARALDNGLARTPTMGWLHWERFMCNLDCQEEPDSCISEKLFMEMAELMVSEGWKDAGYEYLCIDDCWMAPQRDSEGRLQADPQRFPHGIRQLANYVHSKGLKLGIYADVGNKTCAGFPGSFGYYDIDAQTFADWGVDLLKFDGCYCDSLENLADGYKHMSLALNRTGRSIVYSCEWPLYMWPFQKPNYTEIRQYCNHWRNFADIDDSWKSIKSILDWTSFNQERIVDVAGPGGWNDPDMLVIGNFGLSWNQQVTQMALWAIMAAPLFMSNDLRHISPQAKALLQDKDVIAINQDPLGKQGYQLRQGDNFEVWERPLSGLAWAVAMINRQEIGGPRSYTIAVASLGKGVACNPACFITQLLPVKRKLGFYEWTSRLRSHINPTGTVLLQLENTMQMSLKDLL
miR-21 reporter: raises the signal of a miR-21 reporter | HeLa miR-21 FLuc reporter, luciferase, 48 h | Potency, µM (top dose mostly 38.3 µM), without a hit: at the highest dose reporter change, positive = more light | 340,000 tested, under 10 active | AID 2288; active = well fitted rising curve with a large enough effect; inconclusive = small, poorly fitted or top-dose-only effect; inactive = no such curve, though single readings can be large or run the other way;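 note: % of control where 0% means no effect; miR-21 action dims this reporter so a rising signal means less miR-21 action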
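HeLa miR-21-FLuc reporter line, endogenous miR-21; 2000 cells/well in DMEM/10% FBS; compound titration up to ~40uM final, 48 h, 37 degree Celsius; luciferase detection reagent, 15 min lysis, CCD luminescence.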
Rango-impB inh: Rango-importin beta binding inhibition; AID 540263; hit rate 0.031% among 340,000; Rango CFP/YFP FRET sensor + importin beta, 45 min; Potency, µM (titrated, usually from 92.2 µM), inactives show at the top dose inhibition of complex formation; active = rising FRET ratio curve, often small or poorly fitted; inconclusive = mostly compound fluorescence or quenching in the first reads; inactive = flat curves in all reads;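 note: potency is the fitted concentration of half-maximal effect; 0% = DMSO wells and 100% = buffer wells lacking importin beta; nearly all actives have a fitted effect of over 15% in size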
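Inhibition scored from the CFP 486 nm/YFP 530 nm FRET ratio 45 min after adding 0.125 microM importin beta to 50 nM Rango biosensor preincubated 5 min with compound (room temperature, PBS with DTT, Tween-20, BSA). No-importin wells as positive control.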
Rango release inh: prevents RanGTP from dissociating the Rango-importin beta complex | Potency, µM (series often up to 46.1 µM), without a hit: top-dose activity change, negative = inhibition | hit rate 0.071% among 340,000 | Biochemical FRET Rango-importin beta, RanGTP-induced dissociation; active means falling FRET ratio curve, often poorly fitted, with flat reads before Ran was added; inconclusive means other falling curves, or compound fluorescence or quenching; inactive means flat or rising ratio curve;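 note: potency is the fitted concentration of half-maximal effect; % of control where 0% means no effect; nearly all actives have a fitted effect of over 45% in size; -100% = wells without RanGTP and RCC1; the record marks most hits as doubtful in a second field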
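Rango/importin beta premix (0.1/0.25 uM final), PBS + 1 mM DTT + 0.02% Tween-20 + 0.1% BSA; cpd 5 min RT; FRET pre-read; + RanGTP-RCC1 (0.6 uM Ran, 2 mM GTP, 0.2 uM RCC1); 45 min RT; FRET post-read, ex 430, em 486/530 nm.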
Active calls of the source: *; ? = inconclusive; nt = no result given; & = joins results of further samples. Only part of the results is shown; the hit share may differ from the screen's.

| Structure | GLA inh pH 4.5 | miR-21 reporter | Rango-impB inh | Rango release inh |
| --- | --- | --- | --- | --- |
| CN(Cc1ccccc1Cl)C(=O)C1CCC(=O)N(CCc2cccc(F)c2)C1 (stereo not drawn) | nt | -3% | 3.0% | -7% |
| COc1cccc(C(=O)OCC(=O)NC(C)CCc2ccccc2)c1O (stereo not drawn) | nt | 2% | -0.3% | 0% |
| COc1ccc(S(=O)(=O)Nc2cc(C)on2)cc1 | nt | -1% | -1.1% | 27% |
| CC(C)(C)c1ccc(C(=O)NCC(=O)N2CCNC(=O)C2)cc1 | nt | -1% | 3.3% | 17% |
| CC(C)C(NC(=O)OCc1ccccc1)C(=O)OCC(=O)N1C(C)CCCC1C (stereo not drawn) | 4 | -15% | -1.6% | 25% |
| Cn1c(=O)cc(SCC(=O)N2CCCC2)c2cc(Cl)ccc21 | 5 | 0% | ? | -10% |
| Cc1ccccc1NC(=O)c1cc(N)ccc1N1CCCCC1 | ? | -2% | 5.3% | 14% |
| Cn1c(=O)c(C(=O)NC2CCCCCC2)c(O)c2ccccc21 | nt | -2% | 0.9% | 19% |
| Cc1ccc([N+](=O)[O-])cc1N=C(c1ccc([N+](=O)[O-])cc1)N1CCOCC1 | -13 | 3% | 0.1% | -6% |
| CC1CCc2c(sc(NC(=O)c3cccn3C)c2C(N)=O)C1 (stereo not drawn) | nt | nt | -2.4% | -13% |
| COc1cc2c(cc1NC(=O)C(F)(F)F)-c1ccc(NC(=O)C(F)(F)F)cc1C2 | nt | nt | 3.4% | 3% |
| COc1ccc(CN2C(=O)c3cccnc3C2=O)cc1S(=O)(=O)NCc1ccccc1 | nt | -1% | 2.8% | 4% |
| CCCC[n+]1ccn(-c2nc3ccccc3nc2[N-]S(=O)(=O)c2ccc(C)cc2)c1 | 9 | 1% | ? | ? |
| CCOC(=O)/C(C#N)=C/c1ccc(OC(=O)c2ccco2)c(OCC)c1 | -2 | 0% | ? | -17% |
| Cc1ccc(NC(=O)CSc2ccc(-c3ccccn3)nn2)cc1 | -1 | 0% | -2.5% | 0% |
| C=CCN1C(c2ccccc2)=CS/C1=C(\C#N)c1nnc2n1CCCCC2 | 9 | -8% | 1.6% | 2% |
| Cc1ccc(CNS(=O)(=O)c2ccc(C(F)(F)F)cc2)n1C | 6 | 0% | 0.1% | -12% |
| CC(=O)Nc1ccc(-n2c(C)nc(=O)c(-c3ccccc3)c2C)cc1 | 1 | 3% | 0.4% | -1% |
| COc1ccc(CCNC(=O)C2CC(=O)N(C3CCCC3)C2)cc1OC (stereo not drawn) | -2 | -2% | -0.4% | -2% |
| COc1cc(CN2CCNC(=O)C2CC(=O)NCCCN2CCOCC2)cc(OC)c1 (stereo not drawn) | nt | 1% | ? | -14% |
| CCCc1nc2ccccc2n1C(=S)SC | -3 | 4% | -0.2% | 0% |
| CCN(CC)C(=O)Cn1cc(C(=O)C(=O)N(CC)C2CCCCC2)c2ccccc21 | nt | 5% | 0.1% | -21% |
| COc1cccc(CNS(=O)(=O)c2ccc3c(c2)CC(C)N3C(=O)C2CCC2)c1 (stereo not drawn) | nt | 12%&15% | 0.1% | -8% |
| FC(F)(F)c1cc(-c2ccc(Cl)cc2)nc2ncnn12 | 1 | 1% | 3.9% | -10% |
| CCOC(=O)CC(=O)CSc1nc(N)c(C#N)c(-c2ccc(Cl)cc2)c1C#N | 5 | -5% | ? | ? |
| O=[N+]([O-])c1ccc(Oc2cnc3ccccc3n2)cc1 | 10 | 0% | 3.7% | -9% |
| Cc1cccc(C(=O)NCC(=O)N(C)CC(=O)Nc2ccc(N3CCOCC3)cc2)c1 | nt | -9% | 0.1% | -13% |
| Cc1nc(C2CC(=O)OC23CCCCC3)cs1 (stereo not drawn) | -6 | -1% | -2.5% | 3% |
| CCOC(=O)N1CCN(C(=O)COc2ccc(S(=O)(=O)NC(C)C)cc2)CC1 | 0 | -3% | 0.9% | 12% |
| CCOc1ccc(CCNC(=O)CN2C(=O)NC3(CCCC3)C2=O)cc1OCC | nt | -1% | 0.1% | -11% |
| CCC(C)N(C)C1CCN(C(=S)Nc2ccc(OC)cc2)CC1 (stereo not drawn) | 6 | 1% | -3.0% | -10% |
| CCN(CC)CCCNC(=O)c1cc(-c2ccccc2)c(N2CCCCC2)s1 | nt | 1% | 1.9% | 2% |
| CC1CCC(C(C)C)C(OC(=O)COC(=O)c2cccn2C)C1 (stereo not drawn) | -3 | 2% | -2.1% | 18% |
| CCn1c(CNC(=O)c2cccs2)n[nH]c1=S | -1 | 0% | 2.2% | -11% |
| O=C(NCc1ccccc1)c1ccc(NC(=O)C2CC2)cc1 | nt | nt | 3.6% | -1% |
| COc1ccc(NC(=O)COC(=O)Cc2ccccc2[N+](=O)[O-])cc1OC | 7 | 5% | -3.2% | 10% |
| CCOc1cccc(C(=O)N(Cc2cccc(F)c2)C2CCS(=O)(=O)C2)c1 (stereo not drawn) | nt | -1% | 3.9% | 19% |
| CCc1ccc(C2C(C#N)=C(N)N(N3CCOCC3)C3=C2C(=O)CC(C)(C)C3)s1 (stereo not drawn) | 0 | -1% | 1.4% | 6% |
| Cn1cc(Cl)c(C(=O)N2CCN(c3ncccn3)CC2)n1 | 3 | 0% | -2.6% | 3% |
| Nc1nc(N)c(Br)c(Nc2ccc(Cl)c(Cl)c2)n1 | nt | nt | -2.4% | -9% |
| O=C(CSc1ccccc1[N+](=O)[O-])NC1CCS(=O)(=O)C1 (stereo not drawn) | -2 | 0% | 0.6% | 1% |
| O=S(=O)(c1ccc(F)cc1)n1ccc(-c2cccc(OCc3c(F)cccc3Cl)c2)n1 | 4 | -5% | -0.9% | 1% |
| COc1cc(C(=O)OCC(=O)NCCCc2ccccc2)ccc1OCC(C)C | nt | 4% | -1.3% | -10% |
| CC1(C)C(C=C(Cl)Cl)C1C(=O)N/N=C/c1ccccc1F (stereo not drawn) | nt | 1% | -0.1% | -4% |
| O=C(COC(=O)Cc1ccc(Cl)cc1)Nc1ccc2[nH]c(=O)[nH]c2c1 | nt | nt | -0.5% | -15% |
| COc1ccc(CC(=O)c2ccccc2C(=O)O)cc1 | 7 | -1% | 0.1% | 0% |
| CN(c1ccccc1)S(=O)(=O)c1cccc(NC(=O)c2ccc(=O)[nH]c2)c1 | nt | nt | 9.8% | 0% |
| CCn1c(O)c(C=Nc2ccccc2)sc1=O | 8 | -9% | ? | -20% |
| COc1ccc(S(=O)(=O)N2CCC(C(=O)NCCCN3CCOCC3)CC2)cc1 | nt | -1% | -2.6% | -12% |
| COc1ccc(-c2ncncc2-c2ccccc2)c(O)c1 | nt | 8% | 4.7% | -4% |

(continued)
| Structure | GLA inh pH 4.5 | miR-21 reporter | Rango-impB inh | Rango release inh |
| --- | --- | --- | --- | --- |
| COc1ccccc1CSc1ncc(-c2ccc([N+](=O)[O-])cc2)[nH]1 | -14 | 3% | ? | ? |
| CN(C)S(=O)(=O)c1ccc(NC(=O)COc2cccc3c2OC(C)(C)C3)cc1 | nt | nt | 1.6% | -1% |
| CC1CCCC(NC(=O)CCCn2c(=S)[nH]c3ccccc3c2=O)C1C (stereo not drawn) | -5 | -4% | 0.7% | 2% |
| CC(C)N=c1c([N+](=O)[O-])nn(C)n1O | -9 | -6% | 0.1% | -4% |
| CC(C)N(C(=O)COC(=O)c1ccc([N+](=O)[O-])cc1)c1ccccc1 | -13 | 2% | -3.4% | 14% |
| CN(CC(=O)Nc1ccccc1Cl)C(=O)CSc1nncs1 | nt | nt | 6.2% | 8% |
| COc1ccccc1/C=C(/C(=O)OCC(=O)NCc1ccccc1)c1ccccc1 | -5 | 0% | -0.7% | 1% |
| c1ccc(CCNc2ccnc3cc4ccccc4cc23)cc1 | ? | ? | ? | ? |
| Cc1ccc(C)c(OCCCCn2ccnc2)c1 | 5 | -4% | -4.3% | 9% |
| C=CCn1c(SC(C)CC)nc(O)cc1=O (stereo not drawn) | -3 | -3% | 3.7% | 37% |
| COC(=O)CNc1cc(S(=O)(=O)N2CCCCC2)ccc1Oc1ccc(C(=O)OC)cc1 | nt | 6% | 3.4% | 1% |
| CN(Cc1cnn(C)c1)C(=O)c1sc2cccc(Cl)c2c1Cl | -5 | -7% | 3.8% | -18% |
| COc1ccc(C)cc1-n1nnnc1SCc1csc(C)n1 | 4 | -7% | 1.1% | -9% |
| CCOc1ccc2ccc(OCC)c(/C=N/n3cnnc3)c2c1 | nt | -26% | -0.3% | 2% |
| Cc1nnc(NC(=O)CC23CC4CC(CC(C4)C2)C3)s1 | nt | -3% | 2.1% | 17% |
| CN1CCN(CC(O)COC(c2ccccc2)c2ccccc2)CC1 (stereo not drawn) | 6 | -1% | 1.4% | -6% |
| O=S(=O)(c1ccccc1)N1CCN(CC(O)COc2ccc3c(c2)CCC3)CC1 (stereo not drawn) | -1 | 9% | 1.1% | 1% |
| O=C(C1CC1)N1CCc2cc(Br)cc(S(=O)(=O)NCc3ccccn3)c21 | 6 | -2% | ? | 32% |
| O=C(COC(=O)CNC(=O)c1ccc(Cl)cc1Cl)NC(=O)NC1CCCCC1 | nt | nt | -0.1% | -15% |
| Cc1cc(C=O)c(C)n1-c1ccc(N2CCCCC2)c([N+](=O)[O-])c1 | nt | -6% | -5.1% | -1% |
| CCOc1ccc(NS(=O)(=O)c2cc(NC(=O)CCS(=O)(=O)c3ccc(C)cc3)ccc2OC)cc1 | -11 | 4% | 3.4% | 22% |
| Cc1cc(C(=S)N2CCOCC2)c(C)n1-c1ccc(F)cc1 | -1 | -8% | -2.8% | 4% |
| O=C(CS(=O)(=O)c1c[nH]c2ccccc12)N1CCCc2ccccc21 | 3 | -5% | -4.6% | 0% |
| CCOc1ccccc1NC(=O)CSc1ccc(-c2sc(C)nc2C)nn1 | nt | 6% | -0.4% | -9% |
| CCOC(=O)N1CCC(NS(=O)(=O)c2ccc(C)c(Cl)c2)CC1 | -12 | 14% | 1.2% | 6% |
| O=S(=O)(c1ccc(C2CCCCC2)cc1)N1CCN(c2ncccn2)CC1 | -4 | -3% | -4.0% | -4% |
| Cc1cc([N+](=O)[O-])nn1Cc1ccc(C(=O)N/N=C/c2ccc(F)cc2)cc1 | -5 | 4% | 2.3% | -2% |
| COc1ccc(NC(=O)COc2cccc3c2CCN(Cc2cccnc2)C3=O)c(OC)c1 | nt | -9% | 6.3% | 3% |
| Cc1cccc(-c2nc(C#N)c(NC3CCCCC3)o2)c1 | -2 | -26% | -0.7% | 1% |
| Cc1ccc(C)c(NS(=O)(=O)c2ccc3c(c2)Cc2cc(S(=O)(=O)Nc4cc(C)ccc4C)ccc2-3)c1 | -7 | -13% | -4.4% | 3% |
| CCN(CC)S(=O)(=O)c1ccc(-c2nnc(SCc3nnc(-c4ccc(C)cc4)o3)o2)cc1 | 2 | -5% | 3.2% | -10% |
| Cc1nn(C)c(C(=O)NNC(=S)Nc2ccc(F)cc2)c1[N+](=O)[O-] | -5 | -8% | 4.6% | -6% |
| CCOC(=O)C1=C(C)NC(=O)NC1c1cccc(OC)c1OCc1ccccc1Cl (stereo not drawn) | 13 | 0% | 0.3% | 9% |
| O=C(Nc1ccc2c(c1)OCCO2)C1CCCN(S(=O)(=O)c2cnc[nH]2)C1 (stereo not drawn) | 6 | -11% | 4.2% | 18% |
| Cc1nnc(N2CCN(c3ccccc3)CC2)[nH]c1=O | -1 | -3% | ? | -6% |

Sorted by count of non-hydrogen atoms (descending): six of the compounds above
| Structure | GLA inh pH 4.5 | miR-21 reporter | Rango-impB inh | Rango release inh |
| --- | --- | --- | --- | --- |
| CCN(CC)S(=O)(=O)c1ccc(-c2nnc(SCc3nnc(-c4ccc(C)cc4)o3)o2)cc1 | 2 | -5% | 3.2% | -10% |
| CCOC(=O)C1=C(C)NC(=O)NC1c1cccc(OC)c1OCc1ccccc1Cl (stereo not drawn) | 13 | 0% | 0.3% | 9% |
| Cc1cc([N+](=O)[O-])nn1Cc1ccc(C(=O)N/N=C/c2ccc(F)cc2)cc1 | -5 | 4% | 2.3% | -2% |
| Cc1nn(C)c(C(=O)NNC(=S)Nc2ccc(F)cc2)c1[N+](=O)[O-] | -5 | -8% | 4.6% | -6% |
| Cc1cccc(-c2nc(C#N)c(NC3CCCCC3)o2)c1 | -2 | -26% | -0.7% | 1% |
| Cc1nnc(N2CCN(c3ccccc3)CC2)[nH]c1=O | -1 | -3% | ? | -6% |
